# Bioassay records: PubChem, Broad Institute
# BJeLR viability = MLPCN primary cell-based screen for lethality selective to Ras in HRASV12 cells; hit rate 0.17% among 300,000; inhibition, % (test concentration not listed); BJeLR (HRASV12) viability, CellTiter-Glo ATP luminescence, 48 h; reference of the scale not given here;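 active = replicate mean above 50%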;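 note: 50 nL library stock added to about 25 µL; numbers are from one replicate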
# Active calls of the source: *.
SMILES,BJeLR viability
O=C1c2ccccc2C(=O)C2OC12 (centres undefined),25
COc1ccc(C([O-])=Nc2ccc[n+](-c3nc4ccccc4nc3NS(=O)(=O)c3ccccc3)c2)cc1,2
COc1cc(C2CC(=O)N3CN(c4ccccc4C)CSC3=C2C#N)cc(OC)c1OC (centres undefined),-4
CCn1c2ccccc2c2cc(NC(=O)c3coc(=O)c(Br)c3)ccc21,11
CC(C)OCCCNC(=O)C(NS(=O)(=O)c1ccc2c(c1)c(=O)n(C)c(=O)n2C)c1ccccc1 (centres undefined),2
NC(=O)CC[C@@H]1NC(=O)[C@H](CO)NC(=O)c2cc([N+](=O)[O-])cc(I)c2NCC[C@@H](C(N)=O)NC(=O)[C@H](Cc2ccc(O)cc2)NC1=O,13
CCN1C(=O)[C@H]2[C@H]3[C@H](O)[C@H](O)C/C(=N\O[C@H](C)c4cn([C@H](CO)Cc5ccccc5)nn4)[C@@H]3CC[C@H]2C1=O,6
COC/C=C/C1=CC2=CC(=O)C(C)(OC(=O)c3cnc4ccccc4n3)C(=O)C2=CO1 (centres undefined),6
CCCCCCCC1=CC2=CC(=O)C(C)(OC(C)=O)C(=O)C2=CN1CCc1ccccc1 (centres undefined),1
COc1ccc(CNC(=O)CSc2nc3[nH]ncc3c(=O)n2-c2ccccc2Br)cc1,2
COc1cc(/C=C2/C(=N)N3C(=NC2=O)SN=C3S(C)(=O)=O)ccc1OS(=O)(=O)c1ccccc1,-1
COC(=O)Sc1nnc(-c2ccc(Br)cc2)o1,0
COc1cc(/C=N/NC(=O)c2cc(-c3ccccc3)sc2N)cc(OC)c1OC,1
O=c1c2c3nc4ccccc4nc3n(/N=C/c3ccncc3)c2ncn1-c1ccccc1,1
Fc1cccc(/C=N/Nc2nc3ccccc3[nH]2)c1,5
CC(/C=C/c1ccc2c(c1)OCO2)=N/NC(=O)C1COc2ccccc2O1 (centres undefined),14
C[N+]1(CCC(C(N)=O)(c2ccccc2)c2ccccc2)CCCCC1,-16
ONc1cccnc1-n1nc(C(F)(F)F)cc1C(F)(F)F,6
N#CC1=C(N)C(C#N)(C#N)C(c2cccnc2)C2CCCC=C12 (centres undefined),0
N#Cc1c(Cl)nc(-c2cccnc2)nc1-c1ccccc1,3
Cc1nn(C)cc1/C=N/NC(=O)Cn1cncn1,-5
CO[C@H]1C=CO[C@@]2(C)Oc3c(C)c(O)c4c(O)c(c5c(c4c3C2=O)NC2(CCN(CC(C)C)CC2)N=5)=NC(=O)C(C)=CC=C[C@H](C)[C@H](O)[C@@H](C)[C@@H](O)[C@@H](C)[C@H](OC(C)=O)[C@@H]1C,13
Oc1ccc(C(=C(Cl)Cl)c2ccc(O)cc2)cc1,-11
COc1ccc(CCNC(=O)c2cc(-c3ccco3)nc3ccccc23)cc1,4
CC[n+]1c(C)sc2sc3ccccc3c21,-9
O=C(O)CC12CSc3[nH]c(=O)sc3C1c1ccccc1OC2=O (centres undefined),-12
COc1ccc2c(c1)O[C@H](c1ccc3c(c1)OCO3)[C@@H](OC(=O)N[C@H](C)C1CCCCC1)C2=O,-7
CN(C)c1ccc(/C=N/NC(=O)CN2CCN(c3ccc(F)cc3)CC2)cc1,-7
NC[C@@H]1O[C@H](O[C@H]2[C@@H](O)[C@H](O[C@@H]3[C@@H](O)[C@H](N)C[C@H](N)[C@H]3O[C@H]3O[C@H](CO)[C@@H](O)[C@H](O)[C@H]3N)O[C@@H]2CO)[C@H](N)[C@@H](O)[C@@H]1O,2
COc1cc2c(cc1OC)-c1c(OC)c(OC)c(OC)c3ccnc(c13)C2=O,8
CC(C)(C)C1CC=C2C(C#N)=C(N)C(C#N)(C#N)C(c3cccs3)C2C1 (centres undefined),4
Cn1c(=O)c2[nH]c(SCc3ccccn3)nc2n(C)c1=S,3
COC(=O)C(CC(=O)c1ccc(Br)cc1)n1ccnc1 (centres undefined),2
O=C(Oc1cccc(O)c1)C1CCCCC1,1
CC(C)c1ccc(N2C(=O)NC(=O)/C(=C\C=C\c3ccco3)C2=O)cc1,2
C#CCOCCOCCOCCNc1nc(N2CCN(C(=O)[C@H](Cc3cc4ccccc4[nH]3)n3cc([C@@H](N)C(C)CC)nn3)CC2)nc(N2CCN(C(=O)[C@H](Cc3cc4ccccc4[nH]3)n3cc([C@@H](N)Cc4ccc(O)cc4)nn3)CC2)n1 (some centres undefined),-16
CC(C)=CCC/C(C)=C/CCC(C)NCCN1CCNCC1 (centres undefined),5
COc1ccc(CCn2c(C)ccc2C)cc1OC,-7
CCCCNc1c(N)n(CCCC)c(=O)[nH]c1=O,2
CC1(C)S[C@@H]2[C@H](N=CN3CCCCCC3)C(=O)N2[C@H]1C(=O)O,6
Cn1c(=O)c2c(ncn2CC(=O)N/N=C/C=C/c2ccccc2[N+](=O)[O-])n(C)c1=O,4
C#CCOCCOCCOCCNc1nc(N2CCN(C(=O)C([C@@H](C)CC)n3cc(C(N)COC(=O)C(F)(F)F)nn3)CC2)nc(N2CCN(C(=O)[C@H](CCCCN)n3cc(C(N)CC(C)C)nn3)CC2)n1 (some centres undefined),-4
CC1(OC(=O)c2ccc(Cl)nc2)C(=O)C=C2C=C(c3ccc(C#N)cc3)OC=C2C1=O (centres undefined),2
COc1ccc(O[C@H]2C=C[C@@H](c3ccccc3)O[C@@H]2COC(=O)CC/C(C)=N/OC[C@@H](O)COCc2ccco2)cc1,2
COc1ccc(/C=N/n2cnc3c([nH]c4ccccc43)c2=O)cc1COc1ccccn1,8
Cc1nn(C)cc1CNC(=O)C1C2CCC(O2)C1C(=O)O (centres undefined),7
O=C1C=CC(=O)N1c1ccc(Sc2ccc([N+](=O)[O-])cc2)cc1,64*
O=C1CC(c2ccccc2Cl)c2c(sc3c(=O)[nH]c(CCl)nc23)N1 (centres undefined),0
O=C(N/N=C/C(Br)=C\c1ccccc1)c1cccs1,-7
CC(C)(C)C(C(Oc1ccc(Cl)cc1)n1cncn1)n1nnnc1C(c1cccc(Cl)c1)N1CCCCC1 (centres undefined),3
Cc1cc(=O)[nH]c2c(C)c(Cl)ccc12,9
FC(F)(F)c1ccc(C2[C@H]3CN(Cc4ccc(-c5ccccc5)cc4)[C@H](c4ccccc4)C34CC2(c2ccccc2)C4)cc1 (some centres undefined),7
CN(C)c1ccc(CNCCC2CCOC(C)(C)C2)cc1 (centres undefined),-1
CCOc1cccc(SCc2noc(C(=O)NC(C)C)c2C(=O)O)c1,-10
CCc1nnc(NC(=O)CSc2ccc(-c3ccc(F)cc3)nn2)s1,-3
COc1cc(C[C@@H](CO)[C@H](CO)Cc2ccc(O)c(OC)c2)ccc1O,5
COC/C=C/C1=CC2=CC(=O)C(C)(OC(=O)c3cnc4ccccc4n3)C(=O)C2=CN1c1ccccc1 (centres undefined),-2
Cc1sccc1C1C(C#N)=C(N)SC(N)=C1C#N,-5
Cc1cc(C)c(C)c(S(=O)(=O)NCc2ccco2)c1C,-1
Cc1cccc(C)c1NC(=O)C(C)N (centres undefined),-2

# Remaining list, next part.
SMILES,BJeLR viability
Cc1ccc(CNC(=O)/C(C#N)=C\c2ccc(N(C)C)cc2)cc1,-2
N#CC(C#N)=Cc1ccc(-c2ccccc2)o1,8
C/C(=N/NC(=O)c1ccc(C(C)(C)C)cc1)c1cccnc1,3
O=C(CC(Sc1ccc(Br)cc1)C(=O)O)c1ccc(Br)cc1 (centres undefined),-7
c1ccc2c(c1)nnn1c3ccccc3nc21,16
Cc1c(C(=O)NN2CCCCC2)nn(-c2ccc(Cl)cc2Cl)c1-c1ccc(I)cc1,9
COc1cc(OC)cc(-n2c3nc4ccccc4nc3c3c(=O)n(CC4CCCO4)cnc32)c1 (centres undefined),1
CCCC[C@@H]1CNC(=O)C(=O)N1CCc1cccc2ccccc12,1
Cc1ccc(CNc2ccc3c(c2)OCO3)c(C)c1,21
Cc1nn(-c2ccccc2)c(Cl)c1/C=N/NC(=O)CNc1n[nH]c(=O)[nH]c1=O,-9
C#CCOCCOCCOCCNc1nc(N2CCN(C(=O)[C@H]([C@@H](C)CC)n3cc([C@@H](N)CO)nn3)CC2)nc(N2CCN(C(=O)[C@H](CCCCN)n3cc([C@@H](N)CC(C)C)nn3)CC2)n1,-4
Cc1ccsc1C(=O)C1CCCN(Cc2cnc(N(C)C)s2)C1 (centres undefined),7
O=C(Nc1nc(-c2ccccn2)cs1)c1ccc(S(=O)(=O)N2CCCCC2)cc1,12
CCS(=O)(=O)C1=NN2C(=N)/C(=C\c3ccc(OC(=O)c4ccco4)c(Br)c3)C(=O)N=C2S1,0
CCOc1ccc(NC(C)C(=O)N/N=C/c2ccc([N+](=O)[O-])cc2)cc1 (centres undefined),-3
COc1cccc(OCCOCCNCCO)c1,-9
CCO[C@H]1OC(C(=O)O)=C[C@@H](C2CC2)[C@@H]1CCCO,14
Nc1c(S(=O)(=O)c2cccc(Cl)c2)c2nc3ccccc3nc2n1/N=C/c1ccc(O)c(O)c1,1
c1ccc(CCCOCCC2CO2)cc1 (centres undefined),-4
O=C(O)c1cc(-c2cc(C(=O)O)c3ccccc3n2)nc2ccccc12,5
NC(CC(=O)O)C1CCCCC1 (centres undefined),3
Cc1ccc(/C=N/NC(=O)c2cc(C)oc2C)cc1,6
COC(=O)[C@@H]1CC[C@H](C)[C@@H](c2ccc(C)cc2)N1C(=O)c1ccc(/C=N/OCC[C@@H]2C=C[C@H](OC(C)=O)[C@@H](COC(C)=O)O2)cc1,2
COc1ccccc1/C=N/NC(=O)C1=NNC(c2ccccc2)(c2ccccc2)C1,-15
CNCCCCOc1ccccc1Cc1ccccc1,8
COC(=O)C[C@](O)(CCCC(C)(C)O)C(=O)O[C@@H]1C(OC)=C[C@]23CCCN2CCc2cc4c(cc2[C@H]13)OCO4,92*
C=C(C)C(=O)Nc1cccc(C2=NOC3(C2)C[C@H](C(N)=O)N(C(=O)CC#N)C3)c1 (some centres undefined),-4
CC(C)(C)c1ccc(/C=N/NC(=S)Nc2cccnc2)cc1,-19
COc1ccc2c(c1)C=Cc1ccccc1O2,0
Cc1ccc2c(c1)C1CCCC3C1N2CC(=O)N3Cc1ccccc1 (centres undefined),3
CNC(=O)[C@@H]1C[C@H]1[C@@H](NC(=O)CNC(=O)OCc1ccccc1)c1ccccc1,5
CN1CCN(CC(O)c2ccccc2)CC1 (centres undefined),0
C=C(C)CN1CC[C@]23c4c5ccc(O)c4O[C@H]2c2[nH]c4ccccc4c2C[C@@]3(O)C1C5,4
CCCC[C@@H]1C[C@H]1[C@@H](NC(=O)c1cccs1)c1ccc(Cl)cc1,18
O=C1COc2ccc(N3C(=O)C=CC3=O)cc2N1,6
CN(C)C(=O)NC(O)C(Cl)Cl (centres undefined),3
C#CCOCCOCCOCCNc1nc(N2CCN(C(=O)[C@H](Cc3ccc(O)cc3)n3cc([C@@H](N)CC(C)C)nn3)CC2)nc(N2CCN(C(=O)[C@H](Cc3cc4ccccc4[nH]3)n3cc([C@@H](N)CC(C)C)nn3)CC2)n1,-4
COC(=O)[C@@]1(Cc2ccc(OC)cc2)[C@H]2c3cc(C(=O)N(C)C)n(CCc4ccc(OC)c(Br)c4)c3C[C@H]2CN1C(=O)c1ccccc1,4
O=C1CCN(N=Nc2cccc(Cl)c2)N1,4
O=C(c1ccco1)N1CCN(c2ncnc3c2[nH]c2ccccc23)CC1,4
COc1cc(/C=N\Nc2ccc([N+](=O)[O-])cn2)ccc1OCC(=O)O,4
Cc1n[nH]c(C)c1Sc1ccccc1N=Cc1cc([N+](=O)[O-])ccc1O,0
CCCCCCCC(=O)N/N=C(\C)c1ccc(N)cc1,1
COCCNc1nc(-c2cc(C(=O)Nc3ccccc3)on2)cc(C(C)C)n1,-8
Cn1c(=O)c2c3c(sc2n2c(SCc4ccccc4)nnc12)CCCC3,-3
CN(C)c1ccc(CNc2nc3ccccc3s2)cc1,0
CC1(O)C(=O)C=C2C=C(c3ccsc3)OC=C2C1=O (centres undefined),-7
CN1Cc2c(N3CCOCC3)nc3sc(C(=O)c4ccc(Br)cc4)c(N)c3c2CC1(C)C,9
CC(=O)N1CCN(c2ccc(NC(=S)NC(=O)/C=C/c3ccccc3)cc2)CC1,11

# An excerpt; count on the stated rates, not on these rows.
